# miR-21 reporter: miR-21 reporter, rising signal; Potency, µM (doses to about 38.3 µM), inactives show at the highest dose reporter change, positive = more light; HeLa miR-21 FLuc reporter, luciferase, 48 h; 340,000 tested, under 10 active; AID 2288; active = well fitted rising curve with a large enough effect; inconclusive = small, poorly fitted or top-dose-only effect; inactive = no such curve, though single readings can be large or run the other way;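 further: % of control where 0% means no effect; miR-21 action dims this reporter so a rising signal means less miR-21 action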
#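 HeLa cells stably expressing CMV-driven firefly luciferase with a downstream miR-21 binding sequence, endogenously expressing miR-21, were treated with titrations (up to about 40uM final) for 48 hours at 37 degree Celsius. Luciferase luminescence was read after lysis.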
# Rango dissoc inh: prevents RanGTP from dissociating the Rango-importin beta complex; O95149+P62826; Biochemical FRET Rango-importin beta, RanGTP-induced dissociation; Potency, µM (top dose mostly 46.1 µM), inactives show at the top dose activity change, negative = inhibition; actives 0.071% (n = 340,000); AID 540253; active means falling FRET ratio curve, often poorly fitted, with flat reads before Ran was added; inconclusive means other falling curves, or compound fluorescence or quenching; inactive means flat or rising ratio curve;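 further: potency means the concentration at half of the fitted maximal effect; % of control where 0% means no effect; nearly all actives have a fitted effect of over 45% in size; -100% = wells without RanGTP and RCC1; the record marks most hits as doubtful in a second field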
#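 Recombinant Rango FRET biosensor (EYFP–snurportin 1 IBB–cerulean CFP10) at 0.1 uM premixed with 0.25 uM importin beta in PBS, 1 mM DTT, 0.02% Tween-20, 0.1% BSA. Compound added 5 min; RanGTP-RCC1 (0.6 uM Ran, 2 mM GTP, 0.2 uM RCC1) then triggers release, read at 45 min.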
# Rango complex inh: inhibitors of Rango-importin beta complex formation; Q14974; Rango CFP/YFP FRET sensor + importin beta, 45 min; Potency, µM (doses to about 92.2 µM), without a hit: at the highest dose inhibition of complex formation; actives 0.031% (n = 340,000); AID 540263; active = rising FRET ratio curve, often small or poorly fitted; inconclusive = mostly compound fluorescence or quenching in the first reads; inactive = flat curves in all reads;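 further: potency means the concentration at half of the fitted maximal effect; 0% = DMSO wells and 100% = buffer wells lacking importin beta; nearly all actives have a fitted effect of over 15% in size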
#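 FRET biosensor Rango (snurportin 1 IBB between N-terminal EYFP and C-terminal Cerulean), 50 nM in PBS/1 mM DTT/0.02% Tween-20/0.1% BSA, preincubated 5 min RT with compound; 0.125 microM importin beta added, 45 min RT, CFP/YFP FRET ratio read.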
# GLA inh pH 4.5: inhibitors of human alpha-galactosidase A at pH 4.5 | P06280 | purified enzyme, 4-MU-alpha-Gal fluorescence, pH 4.5 | activity change, negative = inhibition, % at 105 µM | 230,000 tested, under 10 active | AID 1467; inconclusive = small, poorly fitted or top-dose-only inhibition, or a rising curve; inactive = flat fitted curve, though single readings scatter; no compound was filed as active;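 further: 0% = full activity with enzyme and -100% = basal without enzyme; dose as in the result columns while the protocol names 77 µM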
# Target sequence (P06280 whole entry, looked up): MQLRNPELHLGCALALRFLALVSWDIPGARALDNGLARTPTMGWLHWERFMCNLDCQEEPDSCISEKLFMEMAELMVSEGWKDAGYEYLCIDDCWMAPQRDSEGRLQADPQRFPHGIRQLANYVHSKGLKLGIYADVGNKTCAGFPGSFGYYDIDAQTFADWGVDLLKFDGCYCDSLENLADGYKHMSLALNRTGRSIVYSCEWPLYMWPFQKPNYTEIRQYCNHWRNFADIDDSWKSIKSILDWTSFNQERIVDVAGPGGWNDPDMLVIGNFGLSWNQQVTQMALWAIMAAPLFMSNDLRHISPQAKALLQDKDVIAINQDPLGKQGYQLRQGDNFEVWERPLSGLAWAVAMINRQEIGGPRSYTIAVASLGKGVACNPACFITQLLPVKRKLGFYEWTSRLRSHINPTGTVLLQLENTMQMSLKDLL
# Starred values were filed as active, the others as inactive; u = inconclusive; x = not tested or not shown; & = joins results of further samples; [ ] = dose if it differs, or a comment. These rows are one share of the data; count on the stated rates, not on these rows.
miR-21 reporter	Rango dissoc inh	Rango complex inh	GLA inh pH 4.5	canonical_smiles
11%	8%	-2.8%	-2	COc1ccccc1-n1c(=O)oc2ccc(Cl)cc2c1=O
x	4%	1.5%	x	CS(=O)(=O)c1ccc(CNC(=O)C2(C(F)(F)F)C/C(=C/CCO)CCCO2)cc1 (stereo not given)
-45%	u	u	-3	CCOc1cccc2cc(-c3nnc(NCc4ccco4)s3)c(=O)oc12
-10%	-2%	-3.1%	4	Cc1cccc(NC(=S)N2CCCCC2)c1
x	2%	-1.9%	x	CCN(CC(=O)Nc1cccc(OC)c1)C(=O)c1cccc(S(=O)(=O)N2CCc3ccccc32)c1
2%	-12%	-1.9%	2	CCCCC(=O)NC(=S)NNC(=O)c1ccc(Cl)cc1Cl
-22%	17%	-1.4%	-9	COc1ccc(C(=O)N2CCC(C(=O)Nc3ccc4c(c3)OCCO4)CC2)cc1
4%	-25%	u	11	CCCC[n+]1ccn(-c2nc3ccccc3nc2[N-]S(=O)(=O)c2ccccc2)c1
-7%	-5%	-2.8%	9	O=C(Nc1cccc(NC(=O)C2CC2)n1)C1CC1
5%	4%	-2.1%	3	CCOC(=O)N1CCN(C(=O)CSc2ccc3nnc(CCNC(=O)c4ccccc4)n3n2)CC1
-68%	u	6.5µM*	1	CC(=O)c1cc2c(C)c(C(=O)c3ccccc3)oc2cc1O
-10%	0%	4.2%	x	Cc1nc2ccccc2n1CC(O)Cn1c2ccccc2c2ccccc21 (stereo not given)
1%	1%	0.1%	8	COc1cccc(NC(=O)CSc2nnc(CNC(=O)c3ccccc3)n2C)c1
-4%	-5%	-3.6%	6	Cc1ccc(S(=O)(=O)N(C)C)cc1NC(=O)CN1C(=O)NC2(CCCc3ccccc32)C1=O (stereo not given)
-1%	-5%	4.3%	-3	Cc1ccc(C)c(NC(=S)N(CCN(C)C)C(C)c2ccccn2)c1 (stereo not given)
-28%	-12%	0.5%	-3	COCCn1c(C)cc(C(=O)CSc2ncn[nH]2)c1C
x	-1%	0.3%	x	CCCNC(=O)C(=O)Nc1ccc2c(c1)N(S(=O)(=O)c1cccs1)CCC2
2%	-1%	1.5%	4	O=C(OCCN1CCCC1=O)c1cc(F)c(F)c(F)c1F
-8%	-12%	0.4%	10[21.1 µM]	CCC(Sc1nc2ccccc2o1)C(=O)O (stereo not given)
x	2%	2.1%	x	CCOc1ccc(NC(=O)COc2ccccc2C(=O)NCc2ccccc2)cc1
-7%&3%	2%	4.5%	x	O=C(COCc1cc(-c2ccc3c(c2)OCO3)on1)N1CCN(c2ccccc2)CC1
-6%	u	u	-8	COc1ccc(-c2csc(-c3cc4ccccc4oc3=N)n2)cc1
1%	16%	5.0%	x	O=C(CCN1C(=O)/C(=C/c2cccs2)SC1=S)Nc1cccc(C(=O)O)c1
0%	-5%	-0.2%	3	CCOc1cc(/C=N/NC(=O)C(N)=O)cc(Br)c1O
-2%	x	x	-1	Cc1ccccc1NC(=O)c1ccc(Cl)c(NC(=O)c2cccnc2)c1
1%	2%	-1.8%	x	Cc1ccccc1N(C(=O)c1ccco1)C(C(=O)NC1CCCC1)c1cccnc1 (stereo not given)
0%	2%	-0.3%	x	CC1(C)CC(=O)C(C(O)c2cccc([N+](=O)[O-])c2)C(C)(C)N1 (stereo not given)
1%	3%	-1.7%	x	O=C(CN(C(=O)CCC(=O)Nc1ccccn1)c1ccc(F)cc1)NCCc1ccccc1
2%	2%	-0.5%	u	COc1cc2c(C(=O)NCCCN3CCN(c4cccc(Cl)c4)CC3)cn(C)c(=O)c2cc1OC
x	-20%	-0.9%	x	COc1cccc(NC(=O)CN(C)C(=O)c2ccc3c(c2)S(=O)(=O)N=C2CCCCCN23)c1
-6%	3%	-0.9%	2	Cc1ccc(SCC(=O)NCCCc2ccccc2)cc1
x	0%	0.5%	x	CCOc1ccc(S(=O)(=O)Nc2ccc(C(=O)NCC3(N4CCCCC4)CCCCC3)cc2)cc1
15%	u	u	-13	O=C1/C(=C/Nc2ccc3c(c2)OCO3)CCc2ccccc21
-2%	-6%	0.7%	5	CCc1nnc(NC(=O)CN2C(=O)CCC2=O)s1
-3%	-3%	-0.9%	x	O=C1CC(Cc2ccc(Br)cc2)C(=O)N1c1ccccc1 (stereo not given)
10%	3%	-2.4%	0	COC(=O)Oc1ccc(/C=N/NC(=O)CSCc2ccccc2Br)cc1OC
x	2%	1.6%	x	C=COC(=O)NC1CCc2cc(OC)c(OC)c(OC)c2-c2ccc(SC)c(=O)cc21 (stereo not given)
-18%	6%	0.0%	x	CCC(C(=O)N/N=C/c1cccnc1)c1ccccc1 (stereo not given)
-2%	-10%	u	10	COc1ccc(S(=O)(=O)/N=C2/NC(=O)/C(=C/c3ccco3)S2)cc1
0%	-11%	1.5%	9	CCOC(=O)N1CCN(c2cc(C)c(C(C)=O)cc2F)CC1
0%	9%	-2.3%	x	Cc1cccc(N(CC(=O)N2CCCCCC2)S(C)(=O)=O)c1C
-2%	6%	0.3%	8	COc1ccccc1C(=O)Nc1ccc(Oc2nnc(-c3ccc(C)cc3)c3ccccc23)cc1
-3%	2%	-2.2%	-3	Cc1ccc(OCC(=O)N/N=C\c2cn(Cc3ccccc3)c3ccccc23)cc1C
3%	8%	-3.1%	9	O=C(NNC(=O)C(Cl)Cl)c1cnn(-c2ccccc2)c1C(F)(F)F
25%	12%	-3.2%	0	Cc1ccc(-n2cccc2C(=S)N=P(N(C)C)(N(C)C)N(C)C)cc1
-9%	-1%	5.0%	7	CC(C)(C)Sc1ccc(N)nc1
x	22%	2.3%	x	COc1ccc(Br)cc1C(=O)Nc1ccccc1N1CCCC1
x	4%	-1.5%	x	CC(=O)c1ccccc1OCC(=O)Nc1cccc(S(=O)(=O)N2CCCC2)c1
-29%	18%	0.4%	9	COCCN(C(=O)C1CC1)c1nnc(-c2ccc(C)cc2)s1
-44%	5%	-2.1%	0	O=C(CCCc1ccccc1)Nc1cccnc1

# The results go on.
miR-21 reporter	Rango dissoc inh	Rango complex inh	GLA inh pH 4.5	canonical_smiles
-35%	-3%	-3.0%	6	CCOc1ccc2nc(N3CCC(C(=O)Nc4nnc(CC)s4)CC3)sc2c1
0%	8%	3.7%	x	COc1ccc(C(=O)N2CCN(C)C(=O)[C@@H]2C)cc1OC1CCN(C(C)=O)CC1
-5%	0%	-0.8%	-2	COc1ccc(NC(=O)CCCC(=O)OCC(F)(F)C(F)F)cc1
-4%	-23%	-4.9%	9	Cc1cc(C(=O)COC(=O)c2cc(O)c3ccccc3c2O)c(C)n1CC1CCCO1 (stereo not given)
27%	u	u	1	O=C1c2ccccc2-c2onc3ccc(NCCCn4ccnc4)c1c23
-37%	23%	0.1%	u	CN(C)CCNc1oc(/C=C/c2ccccc2)nc1C#N
3%	13%	-8.0%	0	O=C1N=C(N2CCOCC2)S/C1=C\c1ccncc1
x	-1%	6.0%	x	CC[C@]12c3[nH]c4cc(CCC(=O)N(C)C)ccc4c3CCN1C(=O)[C@@H](CC(=O)NCc1ccc(OC)c(OC)c1)C[C@@H]2C(=O)N1CCN(C(=O)C2CC2)CC1
-2%	1%	0.0%	x	Cc1cc(C)c(S(=O)(=O)c2ccc(Cl)cc2)c(=O)[nH]1
u	-7%	-2.8%	3	CCOc1cc(C(=O)CSc2nnc(CNc3ccc(Cl)cc3)o2)ccc1NC(=O)CC
-5%	-6%	u	7	CCc1cc2c(=O)[nH]c(CC(N)=O)nc2s1
9%	9%	4.7%	6	COc1ccc(Cc2noc(CN(C)Cc3ccc(-n4cccn4)cc3)n2)cc1OC
-2%	3%	0.0%	-11	COc1ccc(C2/C=C\CN(C(=O)Oc3ccc(C(F)(F)F)cc3)CC(=O)N2Cc2ccc(F)cc2)cc1 (stereo not given)
8%	-4%	-1.2%	x	CSc1c(CC(=O)NCCCO)n(Cc2ccccc2)c2ccccc12
x	2%	3.9%	x	CCN(c1ccc(NC(=O)CSc2ccc3c(c2)OCCO3)cc1)C(C)C
-9%	0%	-2.2%	-2	O=S(=O)(Cc1ccccc1Cl)c1ncn[nH]1
-43%	x	x	-1	CCc1cc2c(=O)c(-c3cscn3)coc2cc1OC
x	4%	3.3%	x	Cc1ccc(C)c(NC(=O)CN(C)C(=O)c2ccccc2OCc2ccccc2Cl)c1
-6%	2%	-4.4%	-1	O=C(NC1CCCCCC1)c1cccnc1Sc1ccc(Cl)cc1
-1%	-9%	-0.3%	-7	Cc1nn(C(=O)CCCn2cc([N+](=O)[O-])cn2)c(C)c1Cl
0%	-6%	-3.8%	6	Cc1ccc(C(C(=O)NC2CCCCC2)N(CC2CCCO2)C(=O)CNC(=O)c2cccs2)cc1 (stereo not given)
x	0%	-2.3%	x	COc1ccc(-c2ccc(OC)c(OC)c2OC)c(OC)c1OC
0%	23%	5.0%	-13	COc1ccc(NC(=O)/C(N=Nc2cc(S(=O)(=O)Nc3ccc(OC)cc3)ccc2OC)=C(\C)O)cc1
-5%	-9%	0.3%	4	Cc1ccc2cc(C)c3nnc(SCC(=O)NCc4ccco4)n3c2c1
1%&-8%	1%	0.7%	x	COc1cc(NC(=O)C2=CC(c3ccco3)=NS(=O)(=O)N2C)cc(OC)c1OC
u	9%	4.6%	-11	COc1cc(OC)c2c(-c3ccccc3)cc(=O)oc2c1C(CCN1CCCCC1)c1ccc(N(C)C)cc1 (stereo not given)
9%	1%	6.8%	3	CCCc1ccc(-c2csc(NC(=O)Cc3cccs3)n2)cc1
1%&0%	-6%	-3.0%	3	Cc1ccc(-n2c3c(c(=O)[nH]c2=O)C(NS(=O)(=O)c2ccc(Cl)cc2)(C(F)(F)F)C(=O)N3)cc1 (stereo not given)
25%	6%	-3.5%	-7	CCC1=Nc2cc(C(=O)NCC3CCCO3)ccc2Sc2ccc(Cl)cc21 (stereo not given)
x	4%	0.1%	x	O=C(Cc1ccc(F)cc1)Nc1cccc(S(=O)(=O)N2CCCC2)c1
-20%	-12%	-4.2%	11	COc1ccc(C)cc1NC(=S)NNC(=O)c1ccccc1Cl
-20%	-8%	0.2%	0	O=c1c2ccccc2ncn1-c1ccccc1F
3%	12%	1.7%	8	COc1ccc(-c2[nH]n(-c3ccc([N+](=O)[O-])cc3)c(=O)c2C=NCC2CCCO2)cc1 (stereo not given)
3%	13%	-2.1%	-8	Cc1c(Cl)cccc1Nc1nc(N)nc(CN2CCc3ccccc3C2)n1
-1%	1%	-0.5%	x	COc1ccc(-c2nc(CS(=O)(=O)CC(=O)NC3CCCCC3C)c(C)o2)cc1 (stereo not given)
-10%	2%	4.5%	5	COc1ccc(C(=O)Nc2c(F)c(F)c(F)c(F)c2F)c(OC)c1
-34%	-6%	-2.6%	4	CC1=NC(=O)C(N=Nc2cccc(O)c2)N1c1ccccc1 (stereo not given)
x	14%	0.9%	x	O=C(Nc1ccccc1)[C@@H]1CC=C[C@@H]2CCN(Cc3ccccc3)C(=O)[C@@H]21
-3%	8%	1.2%	-1	COC(=O)c1cccc(NC(=O)CCCOc2ccccc2)c1
x	0%	-1.0%	x	CN(C(=O)CCCN1C(=O)c2ccccc2C1=O)C1CCCCC1
-16%	-7%	-0.7%	1	O=C(NNC(=S)NC(=O)c1cccnc1)c1ccc(F)cc1
2%	15%	u	x	Cc1cc(OC(C)C(=O)NCc2ccccn2)c2c(C)c(C)c(=O)oc2c1 (stereo not given)

# Reformatted: results already given.
SMILES	miR-21 reporter	Rango dissoc inh	Rango complex inh	GLA inh pH 4.5
C=COC(=O)NC1CCc2cc(OC)c(OC)c(OC)c2-c2ccc(SC)c(=O)cc21 (stereo not given)	x	2%	1.6%	x
CCC(C(=O)N/N=C/c1cccnc1)c1ccccc1 (stereo not given)	-18%	6%	0.0%	x
COc1ccc(S(=O)(=O)/N=C2/NC(=O)/C(=C/c3ccco3)S2)cc1	-2%	-10%	u	10
CCOC(=O)N1CCN(c2cc(C)c(C(C)=O)cc2F)CC1	0%	-11%	1.5%	9
Cc1cccc(N(CC(=O)N2CCCCCC2)S(C)(=O)=O)c1C	0%	9%	-2.3%	x
